Vif TR-FRET – inhibitors of Vif binding to APOBEC3G peptide, primary screen, biochemical, TR-FRET, GST-Vif 1-94, biotin-A3G peptide, dose response retest (AID 1117319). TR-FRET GST-Vif / biotin-A3G peptide binding; higher % means a stronger effect; test concentration not given here; strong numbers were not always called active. one-dose inhibition, %; IC50 in µM for titrated hits. 260,000 compounds, 0.57% hits;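 active = above the screen mean plus three standard deviations and confirmed in dose response; inconclusive = results disagree or hit not tested in dose response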;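 also: Vif residues 1-94 fused to GST binding biotinylated APOBEC3G peptide 110-148; 0% = full assay without inhibitor and 100% = GST in place of GST-Vif; retest series ran down from 100 µM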
AF4-AF9 inh – MLL-AF4/AF9 protein interaction inhibition. P42568. AlphaScreen, biotin-AF4 peptide binding to FLAG-AF9. inhibition, % at 10 µM. 350,000 compounds, 0.47% hits;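 active = every replicate reaching a set inhibition limit, whatever the replicate mean, cut at about 25% in these data; inconclusive = mean inhibition reaches that limit but some replicates miss it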;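 also: 0% = plate neutral control median and 100% = total signal loss; the record names both 10 and 1 µM as test concentration; the first replicate is given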
Target sequence (P42568 whole entry, looked up): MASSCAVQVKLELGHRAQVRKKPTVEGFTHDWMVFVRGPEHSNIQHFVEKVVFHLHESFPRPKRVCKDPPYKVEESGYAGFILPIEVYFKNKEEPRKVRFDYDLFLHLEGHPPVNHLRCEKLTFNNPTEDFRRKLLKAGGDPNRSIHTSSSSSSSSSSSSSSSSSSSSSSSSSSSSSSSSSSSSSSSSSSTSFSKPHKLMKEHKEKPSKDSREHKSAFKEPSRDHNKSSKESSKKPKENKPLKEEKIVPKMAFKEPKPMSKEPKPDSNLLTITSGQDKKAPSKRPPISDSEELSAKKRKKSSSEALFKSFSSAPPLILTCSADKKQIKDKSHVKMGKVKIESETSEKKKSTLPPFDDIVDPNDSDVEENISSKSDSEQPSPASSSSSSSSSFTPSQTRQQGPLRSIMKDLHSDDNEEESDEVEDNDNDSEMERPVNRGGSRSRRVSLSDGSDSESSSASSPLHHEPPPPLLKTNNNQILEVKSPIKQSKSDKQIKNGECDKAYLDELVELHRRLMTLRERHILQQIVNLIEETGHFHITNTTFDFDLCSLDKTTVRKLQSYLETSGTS
Ecoli growth – blocks Escherichia coli growth; OD600, 23 h; hits give low values; OD600 absorbance (no concentration beside the values); 330,000 compounds, 0.21% hits;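 active = OD600 absorbance below the run mean of sample wells minus 3.6 SD, in any replicate, cut at about 0.56 in these data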;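 also: stock transfer was 300 nL into about 60 µL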
rRNA inh HTS – inhibits bacterial ribosomal RNA function over humanized ribosomes. E. coli WT GFP vs humanized-ribosome RFP mutants, fluorescence, 24 h; hits give low values; DMSO median 0, no signal -100. GFP signal change (wild-type ribosome), % (test concentration not listed). 350,000 compounds, 1.6% hits;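 active = significant combined selectivity score with lowered wild-type GFP, culture density cut under 30%, mutant RFP and density less affected; inactive = any of these conditions unmet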; also: one replicate is shown; some compounds called inactive have numbers as strong as hits
HNF4A DNA FP – change in binding of human HNF4 alpha to DNA; P41235; HNF4a-FITC DNA binding, fluorescence polarization, 1 h; activity change, % at 10 µM; 360,000 compounds, 0.3% hits; AID 1224865; in the data active = activity change above about 30%, passing the limit was not always enough;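 also: controls were the assay level and a saturating level of protein; the project sought stronger binding though the title names inhibitors; some compounds called inactive have numbers as strong as hits; positive values seem to mean higher polarization but the record does not say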
FGF22 binding – binders of recombinant human FGF22 by thermal shift. calls only at 9.99 µM. 340,000 compounds, 1.5% hits. SYPRO orange fluorescence; percent of sucrose octasulfate shift, DMSO zero. Q9HCT0;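 active = melting point raised past a set limit in the mean and every replicate; inconclusive = no clear call; three in four hits are not shown here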
Target sequence (Q9HCT0 whole entry, looked up): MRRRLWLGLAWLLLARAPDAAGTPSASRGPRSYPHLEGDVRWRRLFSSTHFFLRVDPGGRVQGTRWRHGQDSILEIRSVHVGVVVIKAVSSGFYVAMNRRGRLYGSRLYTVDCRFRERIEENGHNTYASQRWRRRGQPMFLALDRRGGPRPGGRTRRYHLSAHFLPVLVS
ALR inh – human ALR oxidase inhibition via reduced H2O2; 290,000 compounds, 3.8% hits; P55789; AID 485317; inhibition, % (concentration not given with the values); purified ALR, DTT oxidation, H2O2 HRP-luminol luminescence;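 active = mean and each replicate at 75% or more; inconclusive = only one of the two met; inactive = neither met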;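 also: stock transfer was 7.5 nL into about 7.5 µL; 0% = neutral wells and 100% = wells with inactivated enzyme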
Target sequence (P55789 whole entry, looked up): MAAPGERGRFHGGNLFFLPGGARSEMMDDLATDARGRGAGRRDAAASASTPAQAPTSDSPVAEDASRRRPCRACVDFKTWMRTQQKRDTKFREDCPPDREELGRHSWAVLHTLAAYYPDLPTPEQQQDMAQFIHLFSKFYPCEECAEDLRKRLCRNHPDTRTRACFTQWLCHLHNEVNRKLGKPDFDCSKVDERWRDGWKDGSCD
rRNA inh HTS OD600 – recorded beside rRNA inh HTS, whose call it bears; OD600 change, %; measured here: OD600 growth;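 optical density of the mix in the first replicate; 0 = DMSO median and -100 = no signal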
rRNA inh HTS RFP – second read-out of rRNA inh HTS, no call of its own (marks repeat the call); RFP signal change, %; measured here: RFP humanized mutant strains;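 first replicate; 0 = DMSO median and -100 = no signal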
Active calls of the source: *; i = inactive; ? = inconclusive; nt = no result given; & = joins results of further samples. A portion of the library; rates above refer to the full screens.

Vif TR-FRET	AF4-AF9 inh	Ecoli growth	rRNA inh HTS	rRNA inh HTS OD600	rRNA inh HTS RFP	HNF4A DNA FP	FGF22 binding	ALR inh	smiles
nt	7.6	nt	-1.5	-8.5	-0.1	nt	i	nt	Cc1noc(C)c1S(=O)(=O)N(C)C[C@@H]1Oc2ccc(N(C)C)cc2CC(=O)N([C@@H](C)CO)C[C@H]1C
nt	nt	0.684	nt	nt	nt	-4.4	nt	7.2	COc1ccc(Nc2nc(-c3cccc([N+](=O)[O-])c3)nc3ccccc23)cc1
-9.8%	-0.6	nt	-29.6	-30.8	-7.2	0.2	i	nt	O/N=C/c1ccccc1Oc1ccc(Cl)cc1
nt	-0.5	nt	-4.0	1.8	-0.4	nt	i	nt	COc1ccc(CN2C[C@@H](C)[C@H](OC)CN(C)C(=O)c3cc(NC(C)=O)ccc3OC[C@@H]2C)cc1
10.7%	nt	0.731	nt	nt	nt	1.0	nt	26.0	COCCNC(=O)Cn1c(=O)n(Cc2ccco2)c(=O)c2ccccc21
3.8%	nt	0.71	nt	nt	nt	1.2	nt	1.0	c1ccc(-n2cnnc2SCc2cn3ccsc3n2)cc1
1.1%	nt	0.737	nt	nt	nt	-2.1	nt	18.1	COCCCn1cc(C(=O)c2cc(OC)ccc2OCC(=O)Nc2cc(C)on2)cc(C#N)c1=O
nt	-2.0	0.639	2.0	5.9	0.1	1.1	i	nt	COC(=O)c1ccc(CNC(=O)COC(=O)/C=C/c2ccc(OC)c(OC)c2)cc1
nt	-2.7	nt	0.5	3.2	-1.4	nt	i	nt	COc1ccc(-c2cnc3c(c2)C(=O)N([C@H](C)CO)C[C@H](C)[C@H](CN(C)S(=O)(=O)c2ccc(C#N)cc2)O3)cc1
13.3%	nt	nt	nt	nt	nt	-3.3	nt	-11.6	Cc1nn(Cc2ccccc2)c(C)c1C(=O)OCC(=O)c1cc(C)n(CC(F)(F)F)c1C
nt	0.8	nt	-46.9	-69.3	-10.6	-13.9	i	97.0*	N#C/C(=N\Nc1cccc(C(F)(F)F)c1)C(=O)c1csc(-c2cccnc2)n1
0.1%	3.0	0.684	nt	nt	nt	3.8	i	1.4	COc1ccc(C(C)=O)cc1CS(=O)(=O)CC(=O)NCCc1c[nH]c2ccccc12
3.3%	nt	0.602	nt	nt	nt	0.3	nt	-6.1	COc1ccc(C(=O)Nc2ccc3c(c2)OCCO3)cc1
6.9%	0.2	0.707	32.4	10.6	12.8	4.6	i	1.1	Cc1cc(/C=C(/C#N)c2nc3ccccc3[nH]2)c(C)n1-c1ccccc1C(=O)O
nt	0.5	0.707	3.9	13.1	-1.0	-1.8	i	4.2	CCCCCc1cc(=O)oc2c(C(CCN3CCN(c4ccccc4)CC3)c3ccc4c(c3)OCO4)c(OC)cc(OC)c12 (centres undefined)
4.9%	nt	0.7	nt	nt	nt	0.9	nt	74.4	CCOC(=O)c1c(C)[nH]c(=S)c(C#N)c1-c1ccccc1
12.1%	2.4	nt	-3.2	7.1	-2.0	-5.2	i	14.4	CCc1cc(/C(Cc2ccccn2)=N\Nc2ccccc2)c(O)cc1O
-1.5%	-1.7	0.657	-12.3	-40.6	-6.0	-0.7	i	18.6	Cc1cc(C)nc(SCC(=O)c2ccc(F)c(C)c2)n1
nt	-1.7	nt	-6.8	-6.1	-1.7	nt	i	nt	COCC(=O)N(C)C[C@H]1Oc2cc(-c3cccc(F)c3)ccc2S(=O)(=O)N([C@@H](C)CO)C[C@@H]1C
nt	-0.1	nt	6.3	0.8	1.2	-1.1	i	nt	CCc1nc2ccc(C(=O)Nc3cccc(NS(C)(=O)=O)c3)cn2c1N(C)Cc1nccn1C
nt	-2.2	nt	6.6	9.9	-0.9	nt	i	nt	CCCC#Cc1cnc2c(c1)C(=O)N([C@H](C)CO)C[C@H](C)[C@@H](CN(C)S(=O)(=O)c1cn(C)cn1)O2
7.8%	nt	0.742	nt	nt	nt	0.8	nt	-13.3	COc1cccc(NC(=O)COC(=O)COc2ccccc2[N+](=O)[O-])c1
-10.7%	-2.1	0.641	2.1	9.1	-3.8	-3.0	i	-1.6	CSc1nc(N(C)C)c2ccccc2n1
?	nt	0.705	nt	nt	nt	-1.2	nt	14.1	COc1ccc(C)cc1-n1c(-c2ccncc2)n[nH]c1=S
nt	-1.1	nt	-0.2	2.5	-3.3	nt	i	nt	COc1ccccc1C(=O)N1C[C@@H]2[C@H](c3ccccc31)[C@@H](CO)N2C(=O)C1CCOCC1

Single records, from the list above. Screens in order: Vif TR-FRET, AF4-AF9 inh, Ecoli growth, rRNA inh HTS, rRNA inh HTS OD600, rRNA inh HTS RFP, HNF4A DNA FP, FGF22 binding, ALR inh
Shown for `COc1ccccc1C(=O)N1C[C@@H]2[C@H](c3ccccc31)[C@@H](CO)N2C(=O)C1CCOCC1` : nt, -1.1, nt, -0.2, 2.5, -3.3, nt, i, nt
Shown for `N#C/C(=N\Nc1cccc(C(F)(F)F)c1)C(=O)c1csc(-c2cccnc2)n1` : nt, 0.8, nt, -46.9, -69.3, -10.6, -13.9, i, 97.0*

Back to the main list, starting two compounds before the break.
Vif TR-FRET	AF4-AF9 inh	Ecoli growth	rRNA inh HTS	rRNA inh HTS OD600	rRNA inh HTS RFP	HNF4A DNA FP	FGF22 binding	ALR inh	smiles
?	nt	0.705	nt	nt	nt	-1.2	nt	14.1	COc1ccc(C)cc1-n1c(-c2ccncc2)n[nH]c1=S
nt	-1.1	nt	-0.2	2.5	-3.3	nt	i	nt	COc1ccccc1C(=O)N1C[C@@H]2[C@H](c3ccccc31)[C@@H](CO)N2C(=O)C1CCOCC1
nt	-2.5	0.73	6.3	-0.7	0.0	-3.4	i	-29.4	Cc1c(Nc2nc(C(F)(F)F)nc3ccccc23)c(=O)n(-c2ccccc2)n1C
1.0%	0.1	0.651	8.2	12.1	-1.1	2.1	i	-11.1	CCCCn1c(N)c(N(CC(C)C)C(=O)CC2CCCCC2)c(=O)[nH]c1=O
-4.5%	-8.5	0.715	4.1	-0.1	-1.5	19.6	i	-15.0	CCCCC(=O)OCC(=O)c1[nH]c(C)c(C(=O)OCC)c1C
14.5%	nt	nt	nt	nt	nt	0.4	nt	-5.8	COc1ccccc1-c1cc(C(=O)N/N=C/c2sccc2C)c2ccccc2n1
-6.7%	0.6	0.693	-1.0	-0.5	12.6	1.1	i	2.8	Cc1c(NC(=O)CSc2ccc(Cl)cc2)cccc1-c1nc2ncccc2o1
-2.4%	nt	0.669	nt	nt	nt	3.8	nt	4.4	S=c1[nH]nc(-c2cccc(Cl)c2)n1CCN1CCCCC1
?	-1.0&3.6&-1.6	0.654&0.708&0.661	3.3&15.4&-1.5	4.8&4.7&2.2	-0.2&2.6&2.7	1.9&-9.3&0.0	i	-11.7&0.2	Cc1nc2c(o1)CCc1ccccc1C2N1CCN(C)CC1 (centres undefined)
nt	1.0	0.651	4.7	-3.4	0.1	1.1	i	nt	NNC(=O)COc1ccc2oc3c(c2c1)CCCC3
-0.3%	nt	0.667	nt	nt	nt	nt	nt	-7.8	CCCc1nc(SCC(=O)N2CCc3ccccc32)c2c(C)c(C)sc2n1
-5.5%	2.4	0.71	-3.4	-3.3	0.0	2.6	i	52.9	Cc1ccc(Cl)c(OCC(=O)N(C)CC(=O)Nc2ccc(N3CCOCC3)cc2)c1
?	2.1	0.665	1.7	1.6	6.2	5.2	i	-8.4	Cc1cc2cc(C#N)c(N3CCN(S(C)(=O)=O)CC3)nc2cc1C
23.6%	-1.2	0.669	0.8	7.6	-1.2	-1.0	nt	36.7	CS(=O)(=O)N1CCC(C(=O)N2CCN(c3ccccc3)CC2)CC1
-4.3%	-3.7	0.664	34.2	15.4	1.4	-3.4	i	-1.6	COc1ccccc1NC(=O)Cn1nnc2sc3c(c2c1=O)CC(C)(C)OC3
nt	7.7	0.656	-36.0	-41.9	-5.0	-1.3	i	nt	Fc1ccccc1N1CCN(C2CCCN(Cc3cccc(C(F)(F)F)c3)C2)CC1 (centres undefined)
nt	-9.6	nt	2.5	13.5	-3.6	nt	i	nt	C[C@H]1CN([C@@H](C)CO)C(=O)c2cc(-c3ccc(C#N)cc3)cnc2O[C@H]1CN(C)Cc1ccccn1
0.3%	nt	0.675	nt	nt	nt	-3.6	nt	-1.3	O=c1oc(-c2cccc(Cl)c2)nc2c1cnn2-c1ccccc1
nt	-0.4	nt	-1.5	2.3	0.5	nt	i	nt	C[C@@H]1CN([C@@H](C)CO)C(=O)c2ccccc2-c2ccccc2CO[C@@H]1CN(C)C(=O)Nc1ccc(-c2ccccc2)cc1
-8.3%	6.5	0.707	9.3	10.0	7.0	0.6	nt	-9.2	N#C/C(=C\c1ccc(-c2cccc([N+](=O)[O-])c2)o1)C(=O)NCCN1CCOCC1
1.8%	2.0	0.688	-1.3	-24.9	6.0	-0.6	i	15.2	CCN(CC(=O)NCc1cccs1)C(=O)c1cccc(S(=O)(=O)Nc2cccc(C)c2)c1
nt	-2.1	0.706	-33.6	-51.0	2.0	-3.6	i	-6.1	CCC1Sc2ccc(S(=O)(=O)Nc3ccc(OC)cc3)cc2NC1=O (centres undefined)
-0.9%	-2.8	0.664	-14.7	-13.9	-2.4	-18.6	i	10.7	O=C(NCc1ccccc1)c1nc[nH]c1C(=O)NCc1ccccc1
24.5%	2.7	0.631	16.2	5.8	1.4	-2.8	i	nt	c1ccc(-n2nnnc2NC2CCCCC2)cc1
nt	-0.5	nt	8.2	1.1	-6.2	2.5	i	nt	Cc1cccc([C@@H]2[C@@H]3C(=O)N(Cc4ccccc4)C(=O)[C@@H]3[C@]3(Cc4ccc(Cl)cc4)C(=O)N(c4ccccc4)C(=O)N23)c1
4.6%	-3.3	0.653	-1.8	-15.0	-2.0	-1.8	i	-2.5	Cc1ccc(CNC(=O)C2CC=CCC2C(=O)O)cc1 (centres undefined)
-8.9%	nt	0.764	nt	nt	nt	3.1	nt	nt	CCc1cc2c(=O)[nH]cnc2s1
nt	1.9	0.705	-0.9	-0.8	2.9	1.5	nt	nt	COc1ccc(CN(CC(=O)NCc2ccc3c(c2)OCO3)C(=O)c2csnn2)cc1
5.2%	nt	0.733	nt	nt	nt	3.2	nt	-6.3	CC(C)(CSc1ccccn1)NS(=O)(=O)c1ccc(Cl)cc1
-14.2%	nt	0.712	nt	nt	nt	-4.5	nt	-1.8	CCOc1ccccc1N(C(=O)CNC(=O)c1ccco1)C(C(=O)NC1CCCC1)c1cccnc1 (centres undefined)
-0.2%	2.7	0.712	-5.7	-3.4	-2.3	-0.1	i	2.9	Cc1cc2ncn(C(=O)N3CCCCC3)c2cc1C
nt	nt	0.707	-32.8	-58.2	0.2	1.8	i	-6.0	O=S(=O)(NCc1ccc(F)cc1)c1ccc(Br)cc1Br
nt	0.6	nt	0.3	7.9	-1.9	nt	i	nt	CC(=O)N(C)C[C@@H]1Oc2cc(C#C[C@@H](C)O)ccc2S(=O)(=O)N([C@H](C)CO)C[C@H]1C

Three compounds from above, arranged by their value in rRNA inh HTS RFP, high to low.
molecule | Vif TR-FRET | AF4-AF9 inh | Ecoli growth | rRNA inh HTS | rRNA inh HTS OD600 | rRNA inh HTS RFP | HNF4A DNA FP | FGF22 binding | ALR inh
Cc1cc2cc(C#N)c(N3CCN(S(C)(=O)=O)CC3)nc2cc1C | ? | 2.1 | 0.665 | 1.7 | 1.6 | 6.2 | 5.2 | i | -8.4
c1ccc(-n2nnnc2NC2CCCCC2)cc1 | 24.5% | 2.7 | 0.631 | 16.2 | 5.8 | 1.4 | -2.8 | i | nt
O/N=C/c1ccccc1Oc1ccc(Cl)cc1 | -9.8% | -0.6 | nt | -29.6 | -30.8 | -7.2 | 0.2 | i | nt

Bioassay records: PubChem, several laboratories
